# Source: PubChem BioAssay (National Center for Advancing Translational Sciences (NCATS))
# RE007 growth inh – less growth of the S. pombe RE007 Vpr strain; S. pombe RE007 Vpr strain, BacTiter-Glo ATP luminescence, 24 h; control for the full effect not named in the record; 360,000 tested, 0.21% active; Potency, µM (doses to about 92.2 µM), for the others: at the highest dose activity change, negative = less growth; active = well fitted falling curve with a large enough effect; inconclusive = small, poorly fitted or top-dose-only effect; inactive = no such curve, though single readings can be large or run the other way;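 also: % is scaled to controls: 0 for no effect and ±100 for the full control effect; nearly all actives have a fitted effect of over 50% in size; the assay follows cell death caused by Vpr and the record does not say whether a fall means rescue or toxicity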
#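 Fission yeast RE007 carrying one integrated HIV-1 vpr copy, seeded at OD 0.01 in PMG+AL medium with 23 nL pinned compound. Grown 24 h at 30 degrees; viability read by BacTiter-Glo luminescence after 5 min.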
# LASV entry inh – inhibitors of Lassa virus binding or cell entry; Lassa virus pseudotype entry inhibition, cell reporter; control for the full effect not named in the record; Potency, µM (doses to about 37.9 µM), without a hit: at the top dose activity change, negative = inhibition, actives largely listed as inhibitors; 300,000 tested, 1.2% active; AID 540256; active means well fitted inhibition curve with a large enough effect; inconclusive means small, poorly fitted or top-dose-only effect, or effect the other way; inactive means flat fitted curve, though single readings scatter; tested in HEK293 cells; also: % is scaled to controls: 0 for no effect and ±100 for the full control effect; nearly all actives have a fitted effect of over 50% in size; luciferase read-out
# MARV entry inh – Marburg virus entry inhibition; Marburg virus pseudotyped entry inhibition, cell reporter; control for the full effect not named in the record; about a third of the inactives were read at about 46 µM; Potency, µM (series often up to 37.8 µM), for the others: at the highest dose activity change, negative = inhibition, actives largely listed as inhibitors; 300,000 tested, 1.8% active; AID 540276; active = well fitted inhibition curve with a large enough effect; inconclusive = small, poorly fitted or top-dose-only effect, or effect the other way; inactive = flat fitted curve, though single readings scatter; tested in HEK293 cells; about a fifth of its hits are not listed in these tables; also: % is scaled to controls: 0 for no effect and ±100 for the full control effect; luciferase read-out
# Cruzain inh Det – inhibitors of Trypanosoma cruzi cruzain with detergent. P25779. purified cruzain, Z-FR-AMC fluorescence, 0.01% Triton. Potency, µM, for inactives: max response, negative = inhibition, actives largely listed as inhibitors. 200,000 tested, 0.43% active. AID 1478; active = well fitted curve in the direction sought with a large enough effect; inconclusive = small, poorly fitted or top-dose-only effect, or another doubt; inactive = no such curve, though single readings can be large; an effect the other way counts as inactive or inconclusive;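 also: plate controls were neutral wells for no effect and buffer without enzyme for full effect; nearly all actives have a fitted effect of over 40% in size; top concentration of the series not given in the record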
# Target sequence (P25779 123-467 limits assumed): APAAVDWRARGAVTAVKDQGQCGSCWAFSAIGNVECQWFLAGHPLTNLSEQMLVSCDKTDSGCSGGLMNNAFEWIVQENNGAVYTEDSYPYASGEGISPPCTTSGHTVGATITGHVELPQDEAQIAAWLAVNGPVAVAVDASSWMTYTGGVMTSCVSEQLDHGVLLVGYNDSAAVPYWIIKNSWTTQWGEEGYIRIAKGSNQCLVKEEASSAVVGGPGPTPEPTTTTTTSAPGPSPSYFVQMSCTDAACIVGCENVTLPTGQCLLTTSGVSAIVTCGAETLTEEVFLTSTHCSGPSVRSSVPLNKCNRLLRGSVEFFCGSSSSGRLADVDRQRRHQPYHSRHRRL
#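 Enzyme 1.5 nM, Z-FR-AMC 2 uM, NaOAc 100 mM pH 5.5, DTT 5 mM, Triton X-100 0.01%; 15 min RT compound preincubation; kinetic ex360/em450, 60 s delta.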
# SARS PLP yeast – blocks SARS-CoV papain-like protease in a yeast assay; 330,000 tested, 0.19% active; Potency, µM (doses to about 32.9 µM), for inactives: top-dose activity, positive = growth rescue; S. cerevisiae expressing SARS-CoV PLpro, growth rescue; control for the full effect not named in the record; also: 0% is about no effect; nearly all actives have a fitted effect of over 55% in size; growth read by luminescence after 48 h
# Cruzain inh noDet – inhibitors of Trypanosoma cruzi cruzain without detergent. purified cruzain, Z-FR-AMC fluorescence, no detergent. P25779. Potency, µM, for inactives: max response, negative = inhibition, actives largely listed as inhibitors. 200,000 tested, 2.3% active. AID 1476; active = well fitted curve in the direction sought with a large enough effect; inconclusive = small, poorly fitted or top-dose-only effect, or another doubt; inactive = no such curve, though single readings can be large; an effect the other way counts as inactive or inconclusive;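 also: plate controls were enzyme without inhibitor for no effect and buffer without enzyme for full effect; nearly all actives have a fitted effect of over 40% in size; top concentration of the series not given in the record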
#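 Detergent-free condition (0.00005% Triton X-100) in acetate buffer pH 5.5 with DTT. 1.5 nM enzyme and compound were pre-mixed 15 min, then 2 uM Z-FR-AMC substrate added; reaction progress from fluorescence change between first and third reads (60 s).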
# 2A StopGo – lowers the luciferase signal of an FMDV 2A StopGo reporter; human cells with a luciferase reporter of 2A StopGo recoding; control for the full effect not named in the record; Potency, µM (top dose mostly 57.9 µM), without a hit: at the highest dose signal change, negative = less light; 410,000 tested, 1.2% active; active = well fitted falling curve with a large enough effect; inconclusive = small, poorly fitted or top-dose-only effect; inactive = no such curve, though single readings can be large or run the other way; tested in HEK293T cells; also: % is scaled to controls: 0 for no effect and ±100 for the full control effect; nearly all actives have a fitted effect of over 45% in size; luciferase light after 4 h
# NS1 function inh – influenza NS1 inhibition | S. cerevisiae slowed by influenza A NS1, growth recovery by OD600 | 270,000 tested, 0.4% active | Potency, µM (highest dose often 46.1 µM), for inactives: at the top dose activity, positive = more growth; also: actives are rising curves; nearly all actives have a fitted effect of over 50% in size
#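 In this qHTS, NS1 from influenza A is expressed in budding yeast, where it slows growth. Cells are switched from glucose to 2% galactose medium (pH 6.0, -URA), treated with compound, and growth recovery is read at OD600.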
# * = called active by the depositor; ? = inconclusive; . = not tested or not shown; & = joins results of further samples; [ ] = dose if it differs, or a comment. Unless noted, calls follow the shape of the dose curve; as a rule, active means well fitted rising curve with a large enough effect; inconclusive means small, poorly fitted or top-dose-only effect; inactive means no such curve, though single readings can be large or run the other way. Potency is read from the fitted curve at half-maximal effect.
# Every second line gives: RE007 growth inh	LASV entry inh	MARV entry inh	Cruzain inh Det	SARS PLP yeast	Cruzain inh noDet	2A StopGo	NS1 function inh
CCOc1ccc(NC(=O)CC2S/C(=N/N=C3CCCCCC3)NC2=O)cc1 (stereo not given)
    3%	.	.	.	?	.	?	0%
CCCCOc1ccc(NC(=O)C2OC3OC(C)(C)OC3C3OC(C)(C)OC23)cc1 (stereo not given)
    11%	3%	-3%[46.1 µM]	-0.3%	5%	-17%	1%	4%
O=C(CCCC(=O)NCc1ccc(F)cc1)NCc1ccc(F)cc1
    6%	27%	1%[46.1 µM]	.	0%	.	35µM*	2%
Cc1cc(=O)n(C)c(=O)n1CC(=O)N1CCCCCC1
    26%	15%	2%	3.7%	4%	6%	-5%	9%
COc1ccc(C(=O)CCN2CCCC(C)C2)cc1 (stereo not given)
    ?	-14%	-1%	.	-4%	.	-18%	6%
Cc1nc(-c2ccccc2)sc1-c1nc(-c2ccccc2)ncc1S(=O)(=O)c1ccccc1
    9%	?	.	-0.8%	-4%	?	-18%	6%
Cc1cc([N+](=O)[O-])nn1CC(=O)N/N=C/c1ccccc1F
    9%	14%	1%	.	1%	.	-11%	5%
CCC(C)NC(=O)c1ccccc1NC(=O)C1CCN(S(=O)(=O)Cc2ccccc2)CC1 (stereo not given)
    .	-12%[46.1 µM]	2%[46.1 µM]	-4.9%	.	17%	-9%	.
CCCCN=C1NC(=O)C(CC(=O)NCCc2ccc(OC)cc2)S1 (stereo not given)
    -1%	.	.	1.1%	-2%	-5%	-3%	1%
Cc1ccc(C(=O)CSc2nnc(-c3cccnc3)n2N)cc1
    3%	?	?	-1.3%	-4%	1%	-5%	?
CCCCCC(=O)NC(=S)Nc1cccc(C(C)=O)c1
    9%	6%[46.1 µM]	?	-19%	14%	-4%	18%	1%
COC(=O)c1ccccc1S(=O)(=O)N(Cc1cc2cc3c(cc2[nH]c1=O)OCO3)C1CCCCC1
    .	.	5%	-5.6%	6%	-2%	.	-15%
CC(C)c1ccc(NC(=S)NC2CC3C=CC2C3)cc1 (stereo not given)
    -3%	.	.	.	-11%	.	112%[activator]	-56%
CCOC(=O)CC(NC(=O)Cn1nnc(-c2ccc(C(F)(F)F)cc2)n1)c1ccc(C)cc1 (stereo not given)
    .	11%[46.1 µM]	9%[46.1 µM]	-3.3%	.	-24%	-19%	.
Cc1ccc(OC(C)C(=O)Nc2ccccc2C(=O)N2CCN(C)CC2)cc1 (stereo not given)
    3%	-15%	8%	.	-3%	.	-29%	1%
CN(CC1CCCN(CCc2ccc(Cl)cc2)C1)C(=O)C(=O)c1ccco1 (stereo not given)
    -5%	.	.	.	12%	.	-23%	-8%
CCC(=O)Nc1ccc(C(=O)NNC(=O)c2ccc([N+](=O)[O-])cc2)cc1
    5%	7%[46.1 µM]	2%[46.1 µM]	.	0%	.	2%	.
Nc1oc2ccccc2c(=O)c1-c1ccc2c(c1)OCO2
    1%	12%	?	.	10%	.	67%[activator]	-1%
CCOc1ccc(-c2n[nH]c(=S)o2)cc1
    3%	.	?	.	0%	.	33%[activator]	.
O=c1oc2ccccc2c(NCc2ccccc2)c1[N+](=O)[O-]
    15%	-15%	-5%	-5.3%	-14%	-10%	-14%	10%
CCOC(=O)/C(CCCN(CC)CC)=N\O
    -10%	0%	14%	1.2%	-7%	3%	-17%	11%
Cc1ccc(CNC(=O)NC2COc3ccccc3C2)cc1 (stereo not given)
    .	-17%[46.1 µM]	.	1.6%	.	-20%	-10%	.
O=C(OCc1ccc([N+](=O)[O-])cc1)c1cnc(Cl)c(Cl)c1
    -17%	?	-8%[46.1 µM]	.	1%	.	-8%	4%
COc1ccccc1C(=O)NC1=NC(c2ccc(Br)cc2)CC(=O)N1 (stereo not given)
    .	-30%[46.1 µM]	?	-9.5%	.	?	34%[activator]	.
N#C/C(=C\c1ccccc1)C(=O)NNS(=O)(=O)c1cccc([N+](=O)[O-])c1
    5%	2%	-19%	.	-1%	.	-17%	.
CCCc1cnc2c(c1SCC(=O)NCc1ccc(C)cc1)c(=O)n(C)c(=O)n2C
    .	?	.	0.1%	.	-1%	-10%	.
CC(C)(C)c1ccc2c(c1)OC(C(=O)N/N=C/c1ccc([N+](=O)[O-])o1)CO2 (stereo not given)
    -14%	?	?	.	-4%	.	3%	2%
Cc1[nH]c2c(C)cccc2c(=O)c1Br
    0%	-1%	-2%	6.2%	-8%	-2%	-25%	-82%
O=C1OC(c2ccccc2)c2ccc3ccccc3c21 (stereo not given)
    16%	1%	1%	-5.8%	14%	4%	-1%	11%
COc1ccccc1C(=O)CSc1cccc[n+]1[O-]
    1%	6%	?	.	0%	.	15%	.
COC(=O)c1ccc(C2=NOC(C)(c3sc(-c4ccc(Cl)cc4)nc3C)C2)cc1 (stereo not given)
    -10%	.	.	.	-3%	.	-8%	-1%
CCN(CC)CCn1c(/N=C/c2ccc(OC)c(OC)c2)nc2ccccc21
    -7%	9%	-23%[46.1 µM]	.	.	.	12%	.
CCc1ccc(CNC(=O)C(CC)n2ccc3cc(S(=O)(=O)N4CCCCC4)ccc32)cc1 (stereo not given)
    .	-9%[46.1 µM]	.	-4.9%	.	-28%	-11%	.
CCc1ccc(-n2nc(CO)c(C(=O)NCc3cccnc3)n2)cc1
    .	2%[46.1 µM]	?	-2.6%	.	5%	6%	.
Cc1ccc(Cn2c(CN3CCN(C(=O)c4ccco4)CC3)nc3c2c(=O)n(C)c(=O)n3C)cc1
    9%	4%	-18%&-18%	1.4%	12%	?	-16%	-11%
O=C1CSC(c2ccc(Cl)cc2)N1 (stereo not given)
    6%	-1%	5%	-0.8%	0%	-3%	-14%	-4%
COc1ccccc1C(=O)n1nc(-c2ccccc2)nc1NCc1ccc(Cl)cc1
    .	-17%[46.1 µM]	?	-1.7%	.	7%	-2%	.
CC(=O)c1ccc(NC(=O)COc2ccccc2-c2nc(-c3ccc(C)cc3)no2)cc1
    .	?	?	-8.5%	.	10%	24%	.
CCOC(=O)COc1ccccc1/C=N/Nc1nnc2c3ccccc3n(C)c2n1
    10%	-25%	-23%[46.1 µM]	.	.	.	-12%	.
CCOC(=O)c1cccc(NC(=O)CSc2nnnn2CC)c1
    1%	-3%	?	1.0%	-5%	-3%	-18%	-5%
COc1ccc(-c2csc(=Nc3c(C)n(C)n(-c4ccccc4)c3=O)n2C(C)(C)C)cc1
    5%	?	-24%	4.6%	4%	-4%	.	1%
O=C(Cn1c(SCCOc2ccccc2)nc2ccccc21)N1CCOCC1
    .	14%[46.1 µM]	-2%[46.1 µM]	-0.7%	.	5%	-29%	.
Cc1ccc(S(=O)(=O)NCCC(=O)NC2CCCCCC2)cc1
    -11%	-24%	7%[46.1 µM]	.	-5%	.	-20%	.
COc1ccc(-n2c(O)c(Cc3ccccc3)c(=O)n3nc(-c4ccccc4)c(=O)cc23)cc1
    6%	?	13%	-8.2%	0%	16%	5%	13%
COc1ccc(CCNC(=O)C2CCCN(c3nc4c(C)cc(C)cc4s3)C2)cc1OC (stereo not given)
    .	.	-14%[46.1 µM]	-1.8%	.	?	12%	.
Cc1ccccc1C(=O)N1CCN(c2ccc(NC(=O)c3cccnc3Cl)cc2)CC1
    25%	-27%	12%	.	-1%	.	-16%	2%
CCCCn1c(SCC(=O)NC(C)CC)nc2ccc(N3CCOCC3)cc2c1=O (stereo not given)
    -7%	16%	15%	-11%	8%	26%	7%	21%
COCCCNC(=O)c1c(-c2ccccc2)c(-c2ccccc2)nn(C)c1=O
    .	-14%[46.1 µM]	10%[46.1 µM]	-2.3%	.	-4%	-7%	.
COC(=O)c1c(NC(=O)C2C3CCC(O3)C2C(=O)O)sc2c1CCCCCC2 (stereo not given)
    2%	3%	?	-2.6%	6%	30%	-10%	19%
COc1cc(Cn2c(N)c(C(=O)NCc3ccco3)c3nc4ccccc4nc32)cc(OC)c1OC
    -10%	?	?	-12%	-1%	?	?	12%
Cc1ccccc1NC(=S)NC(NC(=O)N(C)C)C(Cl)(Cl)Cl (stereo not given)
    -14%	0%	21%	2.1%	-2%	6%	11%	13%
Clc1ccccc1N1CCN(Cc2ccco2)CC1
    -10%	.	.	.	5%	.	24%	5%
COc1cc(C2CC(=O)N(Cc3ccc(F)cc3)c3ccccc3S2)cc(OC)c1OC (stereo not given)
    .	.	?	-6.0%	.	?	14µM*	.
COc1cccc2cc(C(=O)NCc3ccccc3Cl)c(=O)oc12
    -12%	22%[46.1 µM]	0%[46.1 µM]	.	-3%	.	32%[activator]	4%
O=c1c(OC2OC(CO)C(O)C(O)C2OC2OC(CO)C(O)C(O)C2OC2OC(CO)C(O)C(O)C2O)c(-c2ccc(O)c(O)c2)oc2cc(O)cc(O)c12 (stereo not given)
    -12%	.	.	.	0%	.	-20%	3%
Cn1c(=S)[nH]c2scc(-c3cccs3)c2c1=O
    -14%	1%	-27%	.	-3%	.	11%	.
N#C/C(=C/c1cccn1-c1cccc(C(=O)O)c1)c1ccc(Cl)cc1
    6%	10%	0%[46.1 µM]	.	-1%	.	-8%	-1%
O=C(CCc1ccccc1)NC1CC(=O)N(c2ccccc2)C1 (stereo not given)
    .	0%[46.1 µM]	.	0.1%	.	11%	-14%	.
O=C(O)c1ccc(S(=O)(=O)Nc2cccc(CP(=O)(c3ccccc3)c3ccccc3)c2)cc1
    8%	.	.	.	-1%	.	-21%	9%
CCC(C)N(CCNC(=O)c1ccc2c(c1)NC(=O)c1ccccc1S2)C1CCCCC1 (stereo not given)
    5%	3.2µM*	?	.	0%	.	-19%	4%
CCOc1ccc(-c2c(C)n(-c3ccc(OCC)cc3)c3[n+]2CCCCC3)cc1
    -5%	?	?	.	-1%	.	?	-58%
O=C(CN1CCOCC1)NCCC12CC3CC(CC(C3)C1)C2
    57%	0%	19%	3.2%	-1%	7%	34%[activator]	10%
Cc1cc(N2CCC(C)CC2)nc2ccc(NC(=O)Cc3c(F)cccc3Cl)cc12
    .	9%[46.1 µM]	2%[46.1 µM]	0.5%	.	2%	-5%	.
